Assay outcomes (PubChem)
CSC inhib: cancer stem cell inhibition; cancer stem cell-like cells viability, luminescence; inhibition, % at 7.5 µM; hit rate 1.1% among 300,000;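 active = mean at 75% or more and at least half the replicates too; inconclusive = mean and replicates disagree; tested in HMLE shEcad cells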;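 note: 0% = median of negative and 100% = median of positive control wells; the first replicate is given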
UUG fidelity: alters start codon recognition fidelity in yeast; S. cerevisiae UUG-firefly luciferase reporter, luminescence/redox ratio; activity score, % at 18.7 µM; hit rate 0.13% among 350,000;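 active = replicate mean at a twofold rise or more, about +100% in these data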;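 note: firefly luciferase made from a UUG start codon reports start codon fidelity; reporter light over untreated wells divided by growth signal over untreated wells; some hits fall short of that in this replicate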
PABP polyA inh: PABP-poly(A) binding inhibition. hit rate 1% among 290,000. PABP-poly(A) RNA binding, fluorescence polarization. AID 2014. inhibition, % at 35 µM;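 active = 50% or more with normal probe brightness, or confirmed in later tests; inconclusive = above 50% with abnormal brightness, or retests that disagree; inactive = below 50% or failed in later tests; about a fifth of its hits are not listed in these tables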;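 note: calls also rest on retests at 20 µM and on dose response follow-up; controls were probe without protein and protein plus probe with vehicle; some compounds called inactive have numbers as strong as hits; many hits fall short of the cut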
Target sequence (P11940 whole entry, looked up): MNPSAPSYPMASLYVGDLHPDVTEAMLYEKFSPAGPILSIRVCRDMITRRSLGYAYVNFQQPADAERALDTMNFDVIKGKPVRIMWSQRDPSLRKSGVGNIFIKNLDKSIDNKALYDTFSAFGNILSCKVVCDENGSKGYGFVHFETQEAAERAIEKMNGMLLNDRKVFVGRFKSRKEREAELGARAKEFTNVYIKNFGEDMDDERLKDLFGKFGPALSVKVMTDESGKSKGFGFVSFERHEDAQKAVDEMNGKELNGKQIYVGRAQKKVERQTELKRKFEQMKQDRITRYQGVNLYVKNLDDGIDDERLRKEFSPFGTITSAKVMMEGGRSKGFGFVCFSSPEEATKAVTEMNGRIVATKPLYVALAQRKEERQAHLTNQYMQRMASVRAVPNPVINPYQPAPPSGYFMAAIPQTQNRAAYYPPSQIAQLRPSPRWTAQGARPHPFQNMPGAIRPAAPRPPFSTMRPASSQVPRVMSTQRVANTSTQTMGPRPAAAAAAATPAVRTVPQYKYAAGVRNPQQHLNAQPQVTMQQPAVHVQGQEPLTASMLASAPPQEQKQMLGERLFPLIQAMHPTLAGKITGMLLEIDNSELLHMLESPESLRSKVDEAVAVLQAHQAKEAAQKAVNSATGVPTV
Env fusion inh: blocks HIV Env-driven cell-cell fusion; hit rate 1.1% among 360,000; AID 651610; HeLa-JRFL Env/CEM21 cell fusion, luciferase; inhibition, % at 12.3 µM;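 active = mean replicate inhibition score of at least 50 and every replicate individually at or above 50; inconclusive = only one of the two criteria met; inactive = mean below 50 and not all replicates reaching 50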;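 note: 0% = plate neutral controls and 100% = maraviroc near 300 nM; one replicate is shown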
Rce1 inhib: inhibitors of yeast Ras-converting enzyme; calls only; Q03530; hit rate 0.27% among 290,000; yeast membranes, quenched prenylated peptide cleavage fluorescence; AID 2563;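 active = fall in fluorescence gain of 50% or more versus controls, with final raw signal at or below 3038400; inconclusive = same 50% fall but final raw signal above 3038400; inactive = fall in fluorescence gain under 50%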;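 note: plate controls were neutral control wells for no effect and wells lacking membranes for full effect; tested at 10 µM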
Target sequence (Q03530 whole entry, looked up): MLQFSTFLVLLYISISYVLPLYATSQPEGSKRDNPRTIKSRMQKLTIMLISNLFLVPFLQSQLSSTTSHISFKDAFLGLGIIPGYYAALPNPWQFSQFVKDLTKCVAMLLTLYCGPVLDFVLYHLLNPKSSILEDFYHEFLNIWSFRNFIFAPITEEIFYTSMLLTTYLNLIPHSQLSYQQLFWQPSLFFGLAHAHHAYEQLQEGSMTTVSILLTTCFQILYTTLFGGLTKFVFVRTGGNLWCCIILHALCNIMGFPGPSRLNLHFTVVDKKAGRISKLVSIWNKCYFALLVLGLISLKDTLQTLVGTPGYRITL
MT1-MMP act inh: blocks activation of human MT1-MMP. HT1080 RFP-PRO-GFP cells, GFP/RFP ratio fluorescence, overnight; percent of plate control window, DMSO zero. P50281. hit rate 0.061% among 360,000. GFP/RFP ratio change, % at 20 µM;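 active = GFP/RFP ratio change of at least 30% with cell ATP level not reduced by more than half and red fluorescence within 50% of control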; note: strong numbers were not always called active
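Compound: 20 µM single dose, 1% DMSO / System: HT1080 RFP-PRO-GFP cells / Controls: DMSO and RFP-L50D-GFP cell wells / Read-out basis: GFP/RFP fluorescence ratio / Schedule: overnight compound exposure at 37 °C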
eIF4H FP inh: inhibitors of RNA binding by human eIF4H. AID 2012. hit rate 0.94% among 290,000. eIF4H fluorescence polarization binding assay. inhibition, % at 35 µM. Q15056;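 active = 50% or more with normal probe brightness, or confirmed in later tests; inconclusive = above 50% with abnormal brightness, or retests that disagree; inactive = below 50% or failed in later tests; about a fifth of its hits are not listed in these tables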;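 note: calls also rest on retests at 20 µM and on dose response follow-up; 0% = protein and probe with vehicle and 100% = probe without protein; strong numbers were not always called active; many hits fall short of the cut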
MT1-MMP act inh RFP: also measured in MT1-MMP act inh; calls as there; RFP signal change, %; measured here: RFP expression control read;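 0 = vehicle wells; hits needed this value within 50% of zero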
* = called active by the depositor; i = inactive; ? = inconclusive; . = no result given. Compounds as they come. Share with any hit: about 3%.

Structure	CSC inhib	UUG fidelity	PABP polyA inh	Env fusion inh	Rce1 inhib	MT1-MMP act inh	MT1-MMP act inh RFP	eIF4H FP inh
Cc1ccc(-c2c(C(=O)N/N=C/c3ccc4c(c3)OCO4)nnn2-c2nonc2N)cc1	-1	-15	6	-10	i	8	-4	-1
COc1cccc(NC2C=CS(=O)(=O)C2)c1 (configuration not stated)	-9	-6	1	.	i	-1	2	39
COc1ccc(CNC(=O)Cn2cc(C(F)(F)F)ccc2=O)cc1	12	.	?	-11	i	-1	0	3
Cc1ccc(NC(=O)CCCCCN2C(=O)[C@@H]3Cc4ccccc4CN3C2=O)c(Cl)c1	-5	.	-17	-4	i	0	-5	-16
CC(=O)Nc1ccc(NC(=O)c2cccc(Oc3ccccc3)c2)cc1	8	-3	-6	16	i	5	2	9
COC(=O)c1cn(NC(=O)Cn2nc([N+](=O)[O-])c(Br)c2C)c(=O)c2ccccc12	4	.	1	-4	i	2	3	-6
COc1cccc(CN2CC(C(=O)NCCc3ccccc3C(F)(F)F)CCC2=O)c1 (configuration not stated)	-3	13	-4	3	i	1	3	-6
CCC1(C(=O)OC)NC(c2ccco2)C2C(=O)N(c3ccc(F)cc3)C(=O)C21 (configuration not stated)	1	.	-6	28	i	-4	3	-2
Cc1ccc(C)c(NC(=O)CSc2ncnc3nc[nH]c23)c1	2	-7	8	15	i	1	1	-3
CCCC(=O)Nc1nc2c(OC)ccc(OC)c2s1	-5	-11	-8	18	i	4	-4	0
CN1OC[C@@H]2CN(S(=O)(=O)c3cccc4ccccc34)[C@H](c3ccc(-c4ccccc4)cc3)C[C@@H]21	.	-7	.	-178	.	2	-7	.
CCOC(=O)N1CCC(Nc2cccc(SC)c2)CC1	.	-16	16	.	i	-1	0	11
O=C(c1cnn2c1NC(c1ccco1)CC2C(F)(F)F)N1CCN(c2cccc(Cl)c2)CC1 (configuration not stated)	57	-4	-6	.	i	-8	-20	12
CCN(CC(=O)Nc1ccc2c(c1)OCCO2)C(=O)C1CCCCC1	-6	-17	6	.	i	0	4	3
O=C(CCN1C(=O)C2C3C=CC(C3)C2C1=O)N1CC(=O)N(CCc2ccccc2)C(=O)C1 (configuration not stated)	9	-2	5	.	.	6	7	-12
COc1ccccc1NC(=O)CN1CCN(c2ccccc2F)CC1	-3	-1	-5	.	i	.	.	-2
Cc1ccccc1-c1nc(CS(=O)(=O)CC(=O)N2CCc3ccccc32)c(C)o1	-7	0	-4	10	i	-1	-2	-8
CC1(C(=O)NS(=O)(=O)c2ccc(Cl)s2)CCN1C(=O)c1ccccc1CCc1ccccc1 (configuration not stated)	.	-20	.	2	.	-1	5	.
CCOc1ccccc1C(=O)Nc1nnc(SCC(=O)N2CCOCC2)s1	13	-4	3	-4	i	-1	2	-3
CN(C)c1ccc(C(=S)N2CCN(C(=S)Nc3ccccc3)CC2)cc1	6	.	-3	7	i	1	5	0
COc1cc(C)c(C(=O)CSc2nnc(CNC(=O)c3ccco3)n2C)cc1C	-12	-17	-2	-7	i	0	-1	-19
CCn1c(SCC(=O)N2CCOCC2)nnc1C(C)NC(=O)c1ccccc1 (configuration not stated)	3	3	0	-16	i	-2	1	-3
COc1ccc(C(CNC(=O)CN2C(=O)NC3(CCCC3)C2=O)N(C)C)cc1 (configuration not stated)	.	-19	0	-1	i	-1	4	-5
Cc1ccc(S(=O)(=O)NCC(=O)N(CC(=O)NC2CCCCC2)CC2CCCO2)cc1 (configuration not stated)	7	-4	-1	-11	i	1	2	-3
CCOC(=O)CN1CCc2c(C)nc3c(-c4ccc(OC)c(OC)c4)cnn3c21	-10	-5	4	-38	i	5	-4	-10
Oc1c(/C=N/c2ncn[nH]2)ccc2ccccc12	-5	-16	6	-141	i	1	6	9
O=C1CCCN1c1ccc(Br)cc1	-15	-22	-2	.	i	6	5	4
O=[N+]([O-])c1ccc(/C=N/n2c(-c3ccccc3)n[nH]c2=S)cc1	-6	-8	5	-5	i	0	-8	15
Cc1ccc(Cc2c(-c3ccc(C#N)cc3)nc3c4ccccc4ccn23)cc1	.	-26	.	-23	.	3	3	.
Cc1cc2c(cc(C(=O)N3CCC(C(=O)N4CCCC4)CC3)n2Cc2c(F)cccc2Cl)o1	2	-2	12	.	i	-2	-7	-4

The list goes on (2 carried over from the part before).
Structure	CSC inhib	UUG fidelity	PABP polyA inh	Env fusion inh	Rce1 inhib	MT1-MMP act inh	MT1-MMP act inh RFP	eIF4H FP inh
Cc1ccc(Cc2c(-c3ccc(C#N)cc3)nc3c4ccccc4ccn23)cc1	.	-26	.	-23	.	3	3	.
Cc1cc2c(cc(C(=O)N3CCC(C(=O)N4CCCC4)CC3)n2Cc2c(F)cccc2Cl)o1	2	-2	12	.	i	-2	-7	-4
Cc1ccc(NC(=O)CN2C(=O)CNC2=O)cc1	-8	-19	-2	3	i	2	6	6
CNC(=O)CSc1nnc(-c2ccncc2)n1Cc1ccccc1	-10	-8	3	-2	i	-2	1	-14
O=C(/C=C/NCc1cccnc1)C(F)(F)C(F)(F)F	-3	-8	-5	-5	i	-5	-8	6
CC(OC(=O)C1CC1C)C(=O)Nc1ccc(Cl)cn1 (configuration not stated)	.	-5	.	-11	.	4	6	.
Cc1cccnc1NC(N)=S	-5	.	6	-4	.	1	2	-7
N#CC1(c2nc3ccccc3[nH]2)CC1c1ccc2c(c1)OCO2 (configuration not stated)	-7	-11	-12	-71	i	-2	3	-6
O=C(N=Nc1c(O)[nH]c2ccccc12)c1cccs1	18	.	-3	-100	i	-3	2	-8
COc1ccc(N(CC(=O)Nc2cccc(C)c2C)S(=O)(=O)c2c(C)[nH]c(=O)[nH]c2=O)cc1	-15	-1	-2	1	i	0	0	2
CN1CCN(C(=O)c2ccc(C(F)(F)F)cc2)CC1	-15	.	?	15	i	0	3	-4
O=c1[nH]cc(S(=O)(=O)N2CCN(c3ccc(F)cc3)CC2)c(=O)[nH]1	.	-4	.	-15	.	-2	3	.
COc1ccc(C2=NN3C(C2)c2ccccc2OC32C(=O)N(C)c3ccccc32)cc1 (configuration not stated)	1	-38	-17	.	i	1	-2	-3
Cc1ccc(C)c(NC(=O)N2CCc3ccccc3C2)c1	0	6	2	-42	i	-4	1	-1
O=C(Nc1cccc(Cl)c1Cl)C1CCCC1	.	-4	.	1	i	6	7	.
COc1ccc(C2(CNC(=O)CCC(=O)O)CCCC2)cc1	-7	-6	-2	.	i	20	2	-14
Cc1ccc(OCC(=O)NCCNC(=O)c2ccncc2)cc1C	3	-37	-2	10	i	-1	0	3
CCOc1nc2cnccc2n(CC(=O)Nc2ccccc2F)c1=O	-3	-10	-3	9	i	4	8	-11
CC(=O)c1sc(N/N=C2\CC3CC2C(C)C3(C)C)nc1C (configuration not stated)	9	.	0	-23	i	1	0	-11
COC(=O)C1(C(C[N+](=O)[O-])c2ccc(C)cc2)C(=O)NCC1c1ccco1 (configuration not stated)	-20	-1	11	3	i	-3	-2	8
O=C(Nc1ccn(CCCN2CCN(c3ccccc3)CC2)c(=O)n1)OCc1ccccc1	.	-2	.	-10	.	0	-4	.
Cc1sc2ncnc(N3CCC(C(=O)Nc4sc5c(c4C(N)=O)CCC(C)C5)CC3)c2c1C (configuration not stated)	.	-9	.	-6	.	0	-9	.
COc1ccc(C(=O)N(CC(=O)NC(C)(C)C)c2ccc3c(c2)OCCO3)cc1OC	11	1	-6	9	i	4	0	-2
COc1ccc2sc(N(CCCN(C)C)C(=O)c3ccc(S(=O)(=O)N4CCc5ccccc5C4)cc3)nc2c1	91*	-4	.	102*	i	6	3	.
CCOC(=O)N1CCN(C(=O)c2ccc3c(c2)N=C(C)c2cc(Cl)ccc2S3)CC1	-17	11	2	2	i	3	-5	-8
O=C(Nc1nnc([C@H]2C[C@H](O)[C@@H](CO)O2)s1)C(c1ccccc1)c1ccccc1	.	-3	.	-20	.	-3	3	.
COc1ccc(C(=O)Nc2ccc(Cl)cc2C(=O)N2CCCC(C)C2)cc1OC (configuration not stated)	4	.	-10	-23	i	0	1	0
Cc1ccccc1OCC(=O)Nc1ccncc1	7	-22	-1	-12	i	-2	-26	-13
CN(CCc1ccccc1)C(=O)c1cccc(NC(=O)Cc2cccc(NC(=O)C3CCN(C(=O)c4ccccc4)CC3)c2)c1	.	-27	.	24	.	1	-11	.
Cc1ccc(OCC(=O)n2nc(C)cc2C)c(C)c1	5	-10	-7	.	i	3	3	3
Oc1ccccc1N1CCN(C(=S)Nc2ccc(SC(F)F)cc2)CC1	1	.	11	-6	i	7	1	-1
Cc1cc(Cl)ccc1NC(=S)NCCCO	-11	.	6	-2	i	0	4	-12
O=C(NC1CCCCC1)Oc1ccccc1	-6	.	-3	4	i	-1	-1	-5
Cn1ccc2c(-c3ccc(F)cc3)cc3c(c21)C1CCC3C1 (configuration not stated)	.	-13	.	16	.	11	6	.
N/C(=N\OC(=O)c1ccccc1)C(Cc1ccccc1)C(=O)NOC(=O)c1ccccc1 (configuration not stated)	.	-6	.	-3	.	-3	0	.
CSc1nc(-c2ccco2)nn1C(=O)c1ccccc1Cl	.	-10	6	8	i	-2	-1	5
Cc1nc(Cl)sc1C(=O)Nc1ccc(F)cc1	.	-15	.	-16	.	-1	-1	.
CCN(CC(=O)Nc1sc2c(c1C#N)CCC(C)C2)Cc1nc2ccccc2c(=O)[nH]1 (configuration not stated)	-3	.	-3	9	i	0	-1	-1
Cc1cccc(C(=O)NC(=S)N2CCN(C)CC2)c1	-6	-13	-13	-12	i	3	4	-10
Cc1nn(CC(=O)O)c2ccccc12	-9	-6	10	-60	i	-4	2	2
O=[N+]([O-])c1ccc(C2=NCCO2)cc1	12	-10	10	17	i	1	8	5
CCOCC(=O)Nc1nc(C)cc(C)n1	-11	.	17	-4	i	-3	2	11
O=C(c1ccc(Cl)c(S(=O)(=O)N2CCCCCC2)c1)N1CCN(c2ccccn2)CC1	-4	.	-5	63*	i	-1	-19	-14
